KCNQ2 inh = KCNQ2 channel blockers in CHO-K1 cells – cell-based, FluxOR thallium flux, B-score, primary screen (AID 2156); 20 min; stronger effect = lower value; only compounds with negative scores are shown here; some inactives read as strong as hits; B-score at 10 µM; 310,000 tested, 1.1% active;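 active means fluorescence ratio B-score at most minus 3 library SDs, with starting brightness B-score within 2 library SDs, cut at about -5.5 in these data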
Target sequence (O88943 whole entry, looked up): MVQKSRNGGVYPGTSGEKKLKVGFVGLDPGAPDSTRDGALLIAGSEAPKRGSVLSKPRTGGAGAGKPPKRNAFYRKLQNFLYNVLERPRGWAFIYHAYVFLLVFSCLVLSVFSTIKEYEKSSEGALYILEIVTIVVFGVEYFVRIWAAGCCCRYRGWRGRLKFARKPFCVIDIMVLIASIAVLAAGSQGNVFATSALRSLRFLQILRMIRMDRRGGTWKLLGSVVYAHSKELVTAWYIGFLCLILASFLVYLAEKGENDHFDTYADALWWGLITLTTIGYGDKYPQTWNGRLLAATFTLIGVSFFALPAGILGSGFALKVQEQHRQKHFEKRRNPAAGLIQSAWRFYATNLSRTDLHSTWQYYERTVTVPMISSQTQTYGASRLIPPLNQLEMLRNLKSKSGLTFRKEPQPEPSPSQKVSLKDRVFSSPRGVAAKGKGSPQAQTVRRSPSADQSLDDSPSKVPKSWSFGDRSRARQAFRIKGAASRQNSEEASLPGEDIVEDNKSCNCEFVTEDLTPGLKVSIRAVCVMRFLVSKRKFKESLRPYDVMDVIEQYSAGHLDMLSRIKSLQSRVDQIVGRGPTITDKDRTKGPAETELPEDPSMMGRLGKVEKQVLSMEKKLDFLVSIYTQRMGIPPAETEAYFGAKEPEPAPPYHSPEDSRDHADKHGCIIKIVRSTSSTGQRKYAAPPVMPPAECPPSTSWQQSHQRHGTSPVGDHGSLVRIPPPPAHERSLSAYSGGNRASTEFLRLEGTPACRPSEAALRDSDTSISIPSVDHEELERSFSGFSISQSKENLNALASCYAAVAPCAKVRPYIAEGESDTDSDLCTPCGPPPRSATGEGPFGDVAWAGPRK
KCNQ2 inh baseline = recorded beside KCNQ2 inh, whose call it bears; B-score; measured here: initial fluorescence intensity artifact check;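 brightness before thallium and not channel activity; 0 = typical well and far values either way flag optical interference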
Active calls of the source: *; i = inactive. An excerpt (hit frequency here may not be typical).

Values in the order – KCNQ2 inh baseline, KCNQ2 inh
O=C(CN1CCN(c2cccc(C(F)(F)F)c2)CC1)NCc1ccccc1
  0.7, i
Cc1ccccc1C(=O)NNC1CC(=O)N(c2ccc3c(c2)OCCO3)C1=O (stereo not drawn)
  0.01, i
Nc1ccc2oc3ccccc3c2c1
  0.49, i
COc1ccc(OC)c(S(=O)(=O)N2CCC(C(=O)N3CCc4ccccc4C3)CC2)c1
  1.16, i
COc1ccc(C2=NS(=O)(=O)N(C)C(C(=O)Nc3cc(OC)c(OC)c(OC)c3)=C2)cc1
  -2.3, i
CCc1ccc(N(C(C)=O)c2nc(CCl)cs2)cc1
  0.01, i
N=C1C(c2nc3ccccc3s2)=C(O)CN1CCCO
  -1.07, i
CCCCN1C(=O)N(c2nnc(C(C)(C)C)s2)C(O)C1c1ccc(C)cc1 (stereo not drawn)
  -1.91, i
Cc1cc(NC(=O)/C(C#N)=C/c2ccc(-c3cccc(C(F)(F)F)c3)o2)n(-c2ccccc2)n1
  0.97, i
CC(=O)Nc1nnc(Cc2ccccc2)s1
  0.25, i
COc1ccc(S(=O)(=O)NNC(=S)NCCc2ccccc2)c(OC)c1
  0.04, i
CCCS(=O)(=O)N1CCC(C(=O)NCc2ccco2)CC1
  -0.47, i
O=C(/C=C/c1ccccc1)NC(=S)N1CCSCC1
  1.27, i
O=c1[nH]c(Cc2ccc(F)cc2)nc2scc(-c3ccc(F)cc3)c12
  0.15, i
CCOC(=O)c1[nH]c2ccc(OC)cc2c1NC(=S)N1CCN(c2ccccc2)CC1
  -0.67, i
Cc1cccc(-c2nnc3n2N=C(c2ccccc2Br)CS3)c1
  1.19, i
CC1CCCCC12NC(=O)N(CC(=O)c1ccc[nH]1)C2=O (stereo not drawn)
  -0.23, i
Cc1ccccc1Cc1c(C)nc2c(C(=O)N3CCN(Cc4ccc5c(c4)OCO5)CC3)cnn2c1C
  -0.04, i
CC(OC(=O)c1cccc(-n2cnnn2)c1)C(=O)N(C)c1ccccc1 (stereo not drawn)
  0.18, i
O=C(COc1ccccc1Cl)Nc1cc(Cl)ccc1O
  1.24, i
Cc1ccc2cc(C3CC(c4ccco4)=NN3C(=O)CCCC(=O)O)c(Cl)nc2c1 (stereo not drawn)
  -0.9, i
O=C(Cn1cnc2c(oc3ccccc32)c1=O)NCc1ccco1
  0.36, i
CC(=O)N1CCOc2cc(S(=O)(=O)NC(C)c3ccccc3)c(Cl)cc21 (stereo not drawn)
  0.01, i
CC(=O)NC(Cc1ccc(F)c(F)c1)C(=O)NC1CCN(C(=O)c2ccc(Cl)cc2)CC1 (stereo not drawn)
  0.17, i
Cc1ccc(NC(=O)CN2CCCCC2)c2c1CC(C)(C)O2
  1.92, i
Cc1cc(OCc2nn[nH]n2)c2c(-c3ccccc3)cc(=O)oc2c1
  1.79, i
O=C(c1cc2c(s1)CCCC2)N1CCN(Cc2ccc3c(c2)OCO3)CC1
  -0.04, i
O=C(COC(=O)CN1C(=O)c2ccccc2C1=O)NC1CCCC1
  -0.28, i
COc1cccc(NC(=O)COC(=O)c2cc(S(=O)(=O)N3CCOCC3)ccc2C)c1
  -2.08, i
Cc1ccc(S(=O)(=O)N2CCN(C(=O)CCn3cncn3)CC2)cc1
  0.1, i
COc1ccc(CN2CCNC(=O)C2CC(=O)NCCC2=CCCCC2)cc1OC (stereo not drawn)
  1.54, i
Cc1ccccc1-c1nc(CN2CCSCC2)c(C)o1
  -0.06, i
O=C(Nc1nnc(Cc2ccccc2)s1)c1cccnc1
  -1.1, i
O=C(COc1ccc(-c2nnc(N3CCCCC3)c3ccccc23)cc1)N1CCCCC1
  -1.77, i
O=C1CC(NC(=O)C(F)(F)F)c2cc3c(cc21)OCO3 (stereo not drawn)
  -0.06, i
CC(=O)Nc1ccc(/C=C/c2ccc3c([N+](=O)[O-])cccc3n2)cc1
  0.4, i
O=C(N/N=C/c1ccc(O)cc1O)NC12CC3CC(CC(C3)C1)C2
  -0.04, i
CCOC(=O)C1CCN(C(=O)C23CC4CC(CC(C4)C2)C3)CC1
  -0.78, i
Cc1ccccc1Cn1cc(NC(=O)CCCn2nc([N+](=O)[O-])cc2C)cn1
  -2.71, i
CN(C)S(=O)(=O)c1ccc(NC(=O)CSc2nnnn2C)cc1
  1.72, i
O=C(CCCOc1ccc(Cl)cc1)N1CCCCC1
  0.04, i
COC(=O)CCN(C(=O)c1cc([N+](=O)[O-])cc([N+](=O)[O-])c1)c1ccccn1
  0.21, i
C/C(CC(=O)N(C(C)C)C(C)C)=N\NC(=O)COc1ccc(Br)cc1Br
  -0.73, i
CCC1CCCCN1C(=O)COc1ccccc1NC(C)=O (stereo not drawn)
  1.94, i
COc1ccccc1NS(=O)(=O)c1ccc(NC(=O)c2[nH]nc(OC)c2[N+](=O)[O-])cc1
  0.93, i
C=CCN1CC(=O)N2C(C)c3[nH]c4ccccc4c3C[C@H]2C1=O (stereo partly drawn)
  2.71, i
CC1CCCC(NC(=O)c2ccc3snnc3c2)C1C (stereo not drawn)
  -0.15, i
CC(=O)c1ccc(S(=O)(=O)N2CCN(C(=O)CSc3ccc(C)c(C)c3)CC2)cc1
  0.57, i
COc1cc2c(cc1OC)C(C(=O)N1CCCCC1)C(c1ccccc1F)N(C)C2=O (stereo not drawn)
  1.35, i
CCCCN(CCCC)c1ncnc2nc[nH]c12
  -1.23, i
CC1CCC(C(C)C)C(OC(=O)Cn2c(-c3ccc(Br)cc3)[n+](C)c3ccccc32)C1 (stereo not drawn)
  0.2*, -5.59*
CCC(C)NC(=O)c1ccccc1NC(=O)C(C)N(c1ccccc1)S(C)(=O)=O (stereo not drawn)
  0.64, i
CC(C)Nc1nc(NC(C)C)nc(Oc2ccc(OCc3ccccc3)nn2)n1
  -0.22, i
C=C(c1ccccc1)c1ccc(N(C)C)cc1
  0.03, i
CCCc1nc2oc3c(=O)[nH]cnc3c2c2c1CCCC2
  -0.4, i
Cc1ccc(Cn2nc(C)c(NC(=O)c3noc4c3CCCCC4)c2C)cc1
  0.17, i
CC(C)C(C(=O)NC(C)(C)C)N1C(=O)c2ccccc2C1=O (stereo not drawn)
  -0.13, i
COc1ccccc1C(=O)OCc1c(F)cccc1Cl
  -1.34, i
O=C(CCS(=O)(=O)c1ccccc1)Nc1ccc2c(c1)OCO2
  0.46, i
CCc1ccccc1NC(=S)Nc1cc(OC)c(NC(=O)C(C)C)cc1OC
  0.47, i

Arranged by heavy-atom count (low to high): some entries from above
Values in the order – KCNQ2 inh baseline, KCNQ2 inh
CC(=O)Nc1nnc(Cc2ccccc2)s1
  0.25, i
CC(C)C(C(=O)NC(C)(C)C)N1C(=O)c2ccccc2C1=O (stereo not drawn)
  -0.13, i
CC(=O)Nc1ccc(/C=C/c2ccc3c([N+](=O)[O-])cccc3n2)cc1
  0.4, i
COC(=O)CCN(C(=O)c1cc([N+](=O)[O-])cc([N+](=O)[O-])c1)c1ccccn1
  0.21, i
CC(=O)c1ccc(S(=O)(=O)N2CCN(C(=O)CSc3ccc(C)c(C)c3)CC2)cc1
  0.57, i
COc1ccccc1NS(=O)(=O)c1ccc(NC(=O)c2[nH]nc(OC)c2[N+](=O)[O-])cc1
  0.93, i

Given field by field: three of the compounds above.
molecule: C/C(CC(=O)N(C(C)C)C(C)C)=N\NC(=O)COc1ccc(Br)cc1Br
  KCNQ2 inh baseline: -0.73	KCNQ2 inh: i
molecule: CC(=O)c1ccc(S(=O)(=O)N2CCN(C(=O)CSc3ccc(C)c(C)c3)CC2)cc1
  KCNQ2 inh baseline: 0.57	KCNQ2 inh: i
molecule: COc1cc2c(cc1OC)C(C(=O)N1CCCCC1)C(c1ccccc1F)N(C)C2=O (stereo not drawn)
  KCNQ2 inh baseline: 1.35	KCNQ2 inh: i

Continuation:
Values in the order – KCNQ2 inh baseline, KCNQ2 inh
CC[C@@]12C(=O)N(c3cccc(Br)c3)C(=O)N1[C@H](c1ccc(Br)cc1)[C@@H]1C(=O)N(C(C)(C)C)C(=O)[C@@H]12
  2.08, i
O=S(=O)(Cc1ccccc1Cl)NCCc1ccc(F)cc1
  1.28, i
Cc1ccc(S(=O)(=O)N2CCN(C(=O)Cc3ccc(S(=O)(=O)N4CCOCC4)s3)CC2)cc1
  -1.51, i
O=C(CCn1nnc(-c2cccs2)n1)N1CCc2ccccc2C1
  0.23, i
O=C(NNc1ccccc1C(F)(F)F)c1sccc1Br
  0.14, i
CCN(Cc1ccccc1)C(=O)CCNS(=O)(=O)c1ccc2c(c1)CC(C)N2C(C)=O (stereo not drawn)
  1.64, i
CC(C)(C)NC(=O)c1ccc2c(c1)C1C3CCC(C3)C1C(c1ccccc1)N2 (stereo not drawn)
  0.03, i
O=C(Cn1nnnc1CN1CCOCC1)N1CCC(c2cccc(Cl)c2)C1 (stereo not drawn)
  -0.41, i
COc1ccc(/C=C2\SC(=S)N(N3CCOCC3)C2=O)c(OC)c1
  -0.05, i
CCc1nnc(N2C(=N)SCC2=O)s1
  0.33, i
O=C(CN1C(=O)S/C(=C/c2cccnc2)C1=O)N1CCOCC1
  0.62, i
O=C(c1ccc(Br)s1)N1CCN(C/C=C/c2ccccc2)CC1
  -0.39, i
O=[N+]([O-])c1ccc(Oc2cc(NC3CCCCCCC3)c([N+](=O)[O-])cc2[N+](=O)[O-])cc1
  0.22, i
O=S1(=O)CCOC[C@H](Cc2ccccc2)N1Cc1ccc(Cl)cc1
  1.44, i
Cc1cc(-c2ccc(C)c(S(=O)(=O)Nc3cc(C)on3)c2)on1
  -0.08, i
CCNc1nc(NCC)n2c(SCC(=O)Nc3ccc(C(F)(F)F)cc3[N+](=O)[O-])nnc2n1
  1.4, i
O=C(c1ccccc1)c1cnc[nH]1
  -0.02, i
CCc1cccc2sc(NC(=O)C3CC3)nc12
  2.84, i
CN(C)CCOC(=O)CCCCCCCCC(=O)OCCN(C)C
  -0.15, i
O=C(NCc1cccc(Cl)c1)c1ccc2c(c1)OCCO2
  -0.02, i
CCOC(=O)c1c(C)[nH]c(C)c1S(=O)(=O)NCc1cc(C)ccc1C
  -1.21, i
COc1ccc(NC(=S)NN2CCN(C)CC2)cc1
  -0.66, i
O=C(CN1C(=O)C2C3C=CC(C3)C2C1=O)OCC(=O)c1ccc(Br)cc1 (stereo not drawn)
  0.15, i
COc1ccc(S(=O)(=O)NC(C)C(=O)N2CCCCCC2)cc1 (stereo not drawn)
  -0.16, i
NNC(=O)CN(CCc1ccccc1)S(=O)(=O)c1ccc(Cl)cc1
  0.89, i
CCCCN1CN(S(=O)(=O)c2ccc(OC)cc2)c2nc3ccccc3nc21
  0.01, i
O=C(Nc1ccccc1[N+](=O)[O-])c1cc2ccccc2nc1Cl
  -0.83, i
CCc1cc(=O)oc2c(C)c(OCC(=O)N3CC[C@@]4(O)CCCC[C@H]4C3)ccc12
  0.9, i
CC(C)(C)N1CC2(c3ccccc3)CN(C(C)(C)C)CC(c3ccccc3)(C1)C2=O
  2.38, i
O=S(=O)(Nc1ccc(OC(F)(F)F)cc1)c1cccc2nonc12
  -1.68, i
O=C(c1cccc(COc2cccc3ccccc23)c1)N1CCCC1
  1.39, i
CN(C)CCNc1ccc(-c2nn(C)c(=O)c3ccccc23)cc1[N+](=O)[O-]
  0.88, i
CCCC(=O)NC(c1ccc(N(C)C)cc1)c1c(O)ccc2ccccc12 (stereo not drawn)
  -0.04, i
CC(=O)Nc1ccc(NC(=O)C(C)OC(=O)C2CC(=O)N(CCc3ccccc3)C2)cc1 (stereo not drawn)
  0.23, i
O=C(O)/C=C/C(=O)Nc1c(F)cccc1F
  0.45, i
N=c1n(CC(=O)O)c2ccccc2n1Cc1ccccc1Cl
  1.87, i
CCOC(=O)C1(Cc2ccccc2)CCN(Cc2ccc(C3CCCCO3)s2)CC1 (stereo not drawn)
  -0.02, i
COc1ccc2c(c1)CCCC2NS(=O)(=O)OCC(Cl)(Cl)Cl (stereo not drawn)
  1.5, i
CCSc1nc(N)c2c3c(sc2n1)CN(C)CC3
  -0.35, i
O=C(O)Cn1nc(-c2ccc(Cl)cc2)ccc1=O
  -0.22, i
O=S(=O)(c1ccc(Cl)cc1)c1nc(-c2ccccc2F)oc1NCCCN1CCOCC1
  -1.02, i
O=[N+]([O-])c1ncc(Br)cc1Nc1ccccc1
  -0.88, i
FC(F)(F)c1ccc(C2[C@H]3CN(Cc4cccnc4)[C@H](c4ccccc4)C34CC2(c2cccnc2)C4)cc1 (stereo partly drawn)
  0.42*, -7.17*
CCOc1ccc(-c2nnn(CC(=O)NCc3ccco3)n2)cc1
  0.92, i
CCCOC1CCCN(C(=O)c2ccc3oc(C(C)C)nc3c2)C1 (stereo not drawn)
  0.17, i
Cc1ccc(NC(=O)Cn2nnc(C(=O)NCc3ccc(Cl)cc3)c2N)cc1F
  -1.29, i
Cc1ccc2nc3nc(NCC4CCCO4)c(C(=O)NC4CCCCC4)cc3c(=O)n2c1 (stereo not drawn)
  0.84, i
CC(C)Cn1c(=O)c(C(=O)Nc2ccncc2)c(O)c2ccccc21
  1.06, i
O=C(COc1ccccc1)Nc1ccc(N2CCN(C(=O)c3ccco3)CC2)cc1
  0.97, i
COc1ccc(C(=O)Nc2cccc3ccccc23)cc1
  -1.42, i
COc1ccc(C(=S)N2CCOCC2)cc1OC(=O)c1cccc([N+](=O)[O-])c1
  1.14, i
O=C(NC(Nc1cc(C(F)(F)F)ccc1Cl)C(=O)c1ccccc1)c1ccccc1 (stereo not drawn)
  0.43, i
Cc1cccc(OCC(=O)Nc2cc(S(=O)(=O)N3CCOCC3)ccc2N2CCCC2)c1C
  -3.06, i
CCOC(=O)c1cnc(-n2nc(C)cc2C)nc1NC(C)c1ccccc1 (stereo not drawn)
  0.11, i

Compound activity: PubChem, Johns Hopkins Ion Channel Center
